Compound activity from PubChem.
MbtI inh: blocks the Mycobacterium tuberculosis siderophore enzyme MbtI | P9WFX0 | purified MbtI enzyme, fluorescence intensity read-out | inhibition, %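 (about 17 µg/mL by stock and volumes)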 | actives 0.89% (n = 100,000) | AID 493033;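 active = above 50% in both replicates, above 80% if mildly self-fluorescent; inactive = the rest, strongly fluorescent compounds included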;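 note: 0% = mean of negative and 100% = mean of positive controls; one replicate is shown; some compounds called inactive have numbers as strong as hits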
Target sequence (P9WFX0 whole entry, looked up): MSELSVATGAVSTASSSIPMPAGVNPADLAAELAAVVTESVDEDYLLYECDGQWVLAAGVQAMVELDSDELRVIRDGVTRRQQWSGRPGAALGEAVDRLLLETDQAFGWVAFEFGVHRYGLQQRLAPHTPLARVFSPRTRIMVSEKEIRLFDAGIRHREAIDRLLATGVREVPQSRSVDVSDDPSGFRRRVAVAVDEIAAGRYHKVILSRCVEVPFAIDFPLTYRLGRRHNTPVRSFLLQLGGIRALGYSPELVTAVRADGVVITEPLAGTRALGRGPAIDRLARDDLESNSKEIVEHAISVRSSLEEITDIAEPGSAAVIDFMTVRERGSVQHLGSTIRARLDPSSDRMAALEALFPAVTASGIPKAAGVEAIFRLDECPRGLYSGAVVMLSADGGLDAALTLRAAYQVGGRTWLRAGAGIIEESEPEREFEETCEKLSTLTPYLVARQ
Mtb MenB inh: blocks the Mycobacterium tuberculosis MenB enzyme | P9WNP5 | MenB enzyme assay, absorbance read-out; some hits fall short of the stated cut | inhibition, %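 (about 12 µg/mL by stock and volumes)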 | actives 0.43% (n = 100,000) | AID 540299;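 active = mean of two replicates above 30%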;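 note: 0% = no compound and 100% = wells with inactive enzyme; the first replicate is given; strong numbers were not always called active; inactives centre near -10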
Polio RdRp inh: inhibitors of poliovirus RNA polymerase binding and polymerization | actives 0.66% (n = 150,000) | poliovirus polymerase elongation, fluorescence polarization; active compounds read low | % elongation, % (compound at 16.7 µg/mL) | AID 588519; in the data active = % elongation below about 90%; note: some results filed as inactive read as strong as hits
Target sequence (P03300 1749-2209 limits assumed): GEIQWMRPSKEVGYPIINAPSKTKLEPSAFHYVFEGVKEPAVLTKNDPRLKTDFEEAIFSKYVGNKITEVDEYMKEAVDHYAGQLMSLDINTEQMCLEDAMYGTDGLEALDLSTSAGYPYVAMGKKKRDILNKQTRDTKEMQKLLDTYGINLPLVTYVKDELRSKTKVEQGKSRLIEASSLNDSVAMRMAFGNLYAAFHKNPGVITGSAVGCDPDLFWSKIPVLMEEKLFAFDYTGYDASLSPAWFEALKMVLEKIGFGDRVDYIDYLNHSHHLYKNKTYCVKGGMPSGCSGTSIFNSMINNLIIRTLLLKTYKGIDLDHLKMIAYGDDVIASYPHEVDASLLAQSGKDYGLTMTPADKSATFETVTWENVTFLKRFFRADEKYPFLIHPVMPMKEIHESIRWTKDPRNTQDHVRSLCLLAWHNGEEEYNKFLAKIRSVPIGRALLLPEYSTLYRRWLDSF
Polio RdRp inh intensity: further read-out of Polio RdRp inh, marked with its call; % elongation; measured here: total intensity read-out; formula for this scale not given here;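 total fluorescence in place of polarization; lower means less elongation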
* marks the source's active call; other numbers are inactive results; . = not tested or not shown; & = joins results of further samples.

SMILES	MbtI inh	Mtb MenB inh	Polio RdRp inh	Polio RdRp inh intensity
c1ccc(CN2CCOCCN(Cc3ccccc3)CCOCC2)cc1	2	7	100	104
O=C(NCc1ccccc1)c1ccc(N2C(=O)Cn3c(cc4sccc43)C2=O)cc1	11	8	101	104
COC(=O)C(O)(CC(=O)c1ccc(C(C)C)cc1)C(F)(F)F (configuration not stated)	-5	-18	100	100
CN(CC(=O)Nc1ccc(N2CCOCC2)cc1)C(=O)Cc1ccccc1	-6	-20	103	99
CCOC(=O)[C@H]1NC(=O)C[C@H]1c1ccccc1	.	-17	103	98
O=C(CCC(=O)N1CC2CC(C1)c1cccc(=O)n1C2)N1CCCCCC1 (configuration not stated)	-1	13	101	102
O=C(Cc1c[nH]c2ccccc12)OCC(=O)N1CCCc2ccccc21	-6	-35	104	100
COc1cccc(NC(=O)CSc2nc3c([nH]c4ccccc43)c(=O)n2C)c1	2	-1	101	96
O=C(OCc1csc(-c2ccccc2)n1)C1Cc2ccccc2CN1S(=O)(=O)c1cccs1 (configuration not stated)	12	-50	99	99
Cc1cc(C(=O)N/N=C2\CC(=O)c3ccccc32)c(C)o1	19	7	100	105
O=C(Nc1ccc(F)cc1F)C1CC(=O)N(Cc2ccccc2)C1 (configuration not stated)	-11	-2	105	107
c1ccc(-c2nnc(-c3cccnc3)nc2-c2ccccc2)cc1	-46	0	98	108
CCOC(=O)c1nnn(-c2nonc2N)c1-c1cccc2ccccc12	-4	-11	99	100
COC(CNC(=O)C1CCC(=O)N1Cc1ccc(C)cc1)OC (configuration not stated)	-23	4	103	103
Cc1nnc(SCC(=O)N2N=C3/C(=C/c4cccs4)CCCC3C2c2cccs2)n(N)c1=O (configuration not stated)	91	-36	104	109
CCOC(=O)CNc1ncnc2nc[nH]c12	-2	-19	101	106
Cc1nc2ccccc2c(=O)n1-c1ccc(Cl)cc1	.	-13	108	107
Nc1nonc1-n1nnc(CO)c1CO	-4	-17	102	103
CCOC(=O)Cn1c(C)cc(=O)c2cccc(OC)c21	116	-6	100	101
Cc1cc(O)c(CN2CCN(S(=O)(=O)c3cccc(Br)c3)CC2)cc1C	-16	3	94	105
CCc1cc2c(=O)c(-c3nc4ccccc4[nH]3)c(C)oc2cc1O	.	0	108	105
COc1ccc(C(=O)Nc2nccs2)cc1OC	-4	-13	99	100
O=C(Nc1ccccc1)OCC1(c2ccccc2)C(=O)c2ccccc2C1=O	.	-16	106	101
O=C(Nc1ccncc1)c1ccccc1O	12	.	102	95
CCOC(=O)CC1=Nn2c(nnc2-c2cccs2)SC1	-1	-15	100	103
SMILES	MbtI inh	Mtb MenB inh	Polio RdRp inh	Polio RdRp inh intensity
CN(C)c1ccc(C(=O)OCC(=O)NC2CC2)cc1	7	.	102	102
CC(=O)CC(=O)[C@@]1(O)CC[C@H]2[C@@H]3C=C(C)C4=CC(=O)CC[C@@H]4[C@H]3CC[C@@]21C	2	-5	101	102
O=C(NC1CCS(=O)(=O)C1)c1ccc(C(=O)c2ccccc2)cc1 (configuration not stated)	-10	.	102	106
O=C(CN1CCOCC1)N1N=C(c2ccc(Cl)cc2)CC1c1ccco1 (configuration not stated)	-5	-24	103	98
CC1=NN(c2ccc(S(N)(=O)=O)cc2)C(=O)/C1=C\C=C/c1ccccc1	1	-46	99	105
CC(C)N(C(=O)CSc1nc2ccccc2c(=O)[nH]1)C(C)C	12	-8	101	99
O=c1[nH]nc(-c2ccccc2)c2cc3c(=O)[nH]nc(-c4ccccc4)c3cc12	-17	-1	101	102
CC(C)(C)C(=O)Nc1cccc(C(=O)NN)c1	-15	3	102	103
CC1(C)CC(NC(=O)COc2ccc(Cl)cc2Cl)CC(C)(C)N1	-7	.	103	108
Cc1nnc(SCC(=O)Nc2sc3c(c2C(N)=O)CCC(C)C3)[nH]c1=O (configuration not stated)	24	-29	99	98
CCN(CC)CCCC(C)Nc1ccnc2cc(Cl)ccc12 (configuration not stated)	-6&-15	-6&-6	100&100	101&101
COc1ccc(OC)c(/C=C/C(=O)O)c1	126	-14	99	97
c1ccc(-n2ncc3c(N4CCN(c5ncccn5)CC4)ncnc32)cc1	13	3	103	96
CCN(c1ccccc1)c1nc2ccsc2c(=O)s1	8	-19	102	96
O=C(Nc1nc(-c2ccc3c(c2)OCO3)cs1)c1cc2ccccc2o1	44	-24	.	.
CCN(CC)C(=O)CN1CCCN(Cc2ccc(F)cc2)S1(=O)=O	0	-18	100	101
CCOC(=O)c1c(C)nn(Cc2cccc(Cl)c2)c1N	-5	-5	103	106
COc1ccc(-c2n[nH]c3c2C(c2ccccc2)N(c2ccccc2)C3=O)cc1 (configuration not stated)	-3	-30	101	99
CCOC(=O)N1CCC(C(=O)OCCOc2cccc(Cl)c2)CC1	2	-7	103	104
COC(=O)C1C(=O)c2c([nH]c(C(=O)OC(C)C)c2C)CC1C (configuration not stated)	3	-4	99	103
COc1cc(OC)c(C2=NOC(C(=O)Nc3ncn(CC(=O)N4CCC(C)CC4)n3)C2)cc1Cl (configuration not stated)	-8	-27	101	100
O=C(C1=C(O)/C(=C/c2ccccc2)CCC1)C(F)(F)F	5	-15	103	102
O=C(CSc1ccc2c(c1)OCCO2)Nc1ccccc1	0	-9	99	107
O=C(CC1CCCC1)N(c1nccs1)C1CCCCC1	11	1	98	102
CSc1nnc(COc2cccc(C)c2)n1C	-10	7	100	100

Single records (already shown). Order of screens: MbtI inh, Mtb MenB inh, Polio RdRp inh, Polio RdRp inh intensity
`c1ccc(-n2ncc3c(N4CCN(c5ncccn5)CC4)ncnc32)cc1` is listed as 13, 3, 103, 96
`CCOC(=O)c1c(C)nn(Cc2cccc(Cl)c2)c1N` is listed as -5, -5, 103, 106

(listing goes on)
SMILES	MbtI inh	Mtb MenB inh	Polio RdRp inh	Polio RdRp inh intensity
CCN(CC)S(=O)(=O)c1ccc(NC(=O)CN2c3ccccc3CC2C)cc1 (configuration not stated)	-2	-8	107	111
CC(=O)Nc1ccc(/C=C2/SC(=Nc3ccccc3)NC2=O)cc1	-23	-15	99	105
CSc1ccc(CNc2ccc(S(N)(=O)=O)cc2)cc1	-3	-21	103	102
O=C(Nc1ccc(-c2nc3ncccc3o2)cc1)c1ccccc1Cl	3	-5	101	100
COc1ccc(C(=O)CSc2nc(-c3ccco3)nc3c2c(=O)n(C)c(=O)n3C)cc1	-1	-16	99	95
CC(=O)Nc1sc2c(c1C(c1cccnc1)N1CCN(C)CC1)CCCC2 (configuration not stated)	-2	-3	104	112
N#Cc1ccc(OCC(=O)NCCCn2ccnc2)cc1	-10	.	101	106
O=C(O)c1cccc(N2CCCC2=O)c1	7	-9	103	104
COc1ccc(-c2nc(C#N)c(NCc3ccccc3)o2)cc1	106	-17	99	105
Cc1cc(Cl)ccc1OC(C)C(=O)N1CCc2ccccc21 (configuration not stated)	-9	-48	92	89
CCCN1CCN(CC(=O)NC(C)c2ccccc2)CC1 (configuration not stated)	5	-23	101	103
NC(=O)C1CN(C(=O)Cn2ccc(C(F)(F)F)n2)c2ccccc2O1 (configuration not stated)	8	-7	112	123
COc1ccc(COCC(O)CNCc2cccnc2)cc1OC (configuration not stated)	-12	-11	94	105
CC1CCC(C(C)C)C(OC(=O)Cn2c[n+](C)c3ccccc32)C1 (configuration not stated)	0	-28	103	98
CCN(CC)C(=O)CN1C(=O)/C(=C/c2ccccc2)SC1=S	-19	-5	104	104
CCS(=O)(=O)CCSc1nsc(SCCS(=O)(=O)CC)c1C#N	30	-6	102	101
COc1ccc(N2C3=[N+](CCCCC3)CC2(O)c2ccccc2)cc1 (configuration not stated)	-4	.	102	104
COc1cccc(-c2cc(C(=O)NCCCN3CCOCC3)on2)c1	-24	-2	104	105
CCc1ccc(NS(=O)(=O)c2cccs2)cc1	0	.	101	96
O=C(CCc1ccccc1)Nc1ccc(-c2nnc(-c3ccccc3)o2)cc1	-44	-35	102	105
Cc1cc(C)c(C)c(S(=O)(=O)N2CCC(C(=O)N(C)Cc3nc4ccccc4c(=O)[nH]3)CC2)c1C	5	-36	102	107
O=C(COc1ccc2ccccc2c1)NCc1ccc2c(c1)OCO2	.	-14	100	106
Cc1ccc(-n2c(=O)c(C#N)cc3c(=O)n4ccccc4nc32)cc1	105	-25	104	110
Cc1cc(=O)[nH]c(SCC(=O)C23CC4CC(CC(C4)C2)C3)c1C#N	.	-25	101	97
Cc1cc(SC2CCOC2=O)nc2ccccc12 (configuration not stated)	61	-11	100	96
SMILES	MbtI inh	Mtb MenB inh	Polio RdRp inh	Polio RdRp inh intensity
O=S(=O)(c1ccc(-c2ccc(S(=O)(=O)N3CCSCC3)cc2)cc1)N1CCSCC1	-11	4	103	102
Oc1cc(Cc2ccccc2)cnc1CN1CCOCC1	-11	0	102	102
O=c1[nH]cc(CO)c(=O)[nH]1	0	8	100	103
O=C(CNc1cccc(Oc2ccccc2)c1)N1CCc2ccccc21	-2	.	100	99
N#CSC12CN3CN(CN(C3)C1)C2	6	33*	99	102
O=C(O)c1c(Cl)nc2ccccn12	-13	.	100	104
CSc1ccc(S(=O)(=O)N2CC(=O)Nc3ccccc32)cc1	2	-70	104	102
O=C(CSc1nc2ccccc2nc1N1CCOCC1)Nc1ccccc1	12	-11	102	101
CCCCn1c(CC(=O)O)nc2cc(S(=O)(=O)N3CCOCC3)ccc21	-8	0	94	96
O=C(c1ccc(Cl)c(Cl)c1)N(c1ccccn1)c1ccccn1	1	.	103	95
Cc1c(C(=O)NC(=S)Nc2ccc(N3CCOCC3)cc2)oc2ccccc12	-4	-9	106	109
Cc1nc(N2CCC(C)CC2)c2c(C)c(C(=O)N3CCN(c4ccc(F)cc4)CC3)sc2n1	-4	-25	102	100
COC(=O)Nc1ccc(S(=O)(=O)Nc2cc(OC)nc(OC)n2)cc1	-18	-2	100	102
O=C(COc1nc2ccccc2nc1N1CCOCC1)NC1CCCCC1	166	-9	102	100
c1ccc2sc(Cc3nn[nH]n3)nc2c1	11	-10	99	108
Oc1[nH]c2ccccc2c1C=NCCCN1CCOCC1	6	12	100	102
O=C(Nc1ccccc1N1CCCC1)c1cccs1	.	-2	99	105
COc1cccc(-c2nn(-c3ccccc3)cc2C(=O)NCC(=O)O)c1	2	-25	101	102
Cc1nc(Cc2nnc(SCc3nc4ccccc4o3)o2)cs1	-6	-30	162	173
CCCNS(=O)(=O)c1ccc2c(c1)CCCC(=O)N2	12	-15	101	102
COc1cc(C(=O)OCc2ncc(-c3ccccc3)o2)cc(OC)c1C	3	-6	100	101
O=C(O)Cn1ccc(=O)[nH]c1=O	-4	27	102	103
CCOc1ccc(CCNC(=O)c2cn(CC(C)C)c(=O)c3c2c2ccccc2n3C)cc1OCC	-1	-24	101	100
Cc1cc(C(=O)N/N=C/C=C/c2ccccc2)n[nH]1	7	-16	103	102
COc1cc2c3c(c1OC)C1(C=CC(=O)C=C1)CC3N(C(=O)c1ccccc1)CC2 (configuration not stated)	.	-8	106	108

Entries listed so far containing a CF3 group:
SMILES	MbtI inh	Mtb MenB inh	Polio RdRp inh	Polio RdRp inh intensity
COC(=O)C(O)(CC(=O)c1ccc(C(C)C)cc1)C(F)(F)F (configuration not stated)	-5	-18	100	100
O=C(C1=C(O)/C(=C/c2ccccc2)CCC1)C(F)(F)F	5	-15	103	102
NC(=O)C1CN(C(=O)Cn2ccc(C(F)(F)F)n2)c2ccccc2O1 (configuration not stated)	8	-7	112	123

Additional results.
SMILES	MbtI inh	Mtb MenB inh	Polio RdRp inh	Polio RdRp inh intensity
CC1CC(C)(C)OC(CN2CCCCC2)O1 (configuration not stated)	6	-5	101	101
CN(Cc1ccccc1)S(=O)(=O)c1cccs1	-1	3	101	104
COc1ccc2c(c1)c(CC(=O)O)c(C)n2C(=O)c1ccc(Cl)cc1	-24&-26&-20	-2&-10&3	100&99&100&100	102&101&102&100
COC(=O)c1cc(C(=O)OC)cc(-n2c(C)cc(C3=NNC(=Nc4ccc(OC)cc4)SC3)c2C)c1	0	-32	104	104
CN1c2ccccc2-c2nc3ccccc3n2C1c1ccncc1 (configuration not stated)	116	-2	104	103
Cc1nn(Cc2nc(-c3ccc4c(c3)OCO4)no2)c(C)c1Br	4	-16	102	103
OCCNc1ccc2ccccc2n1	108	-4	98	97
CC(C)CCNC(=O)C1CCCN(S(=O)(=O)c2ccc3c(c2)oc(=O)n3C)C1 (configuration not stated)	-6	-19	101	103
O=C(COc1ccc(Cl)cc1Cl)NC1CCSC1=O (configuration not stated)	0	14	102	101
CCC(=O)N1CCNC(=O)C1CC(=O)OC (configuration not stated)	-10	-6	102	104
Cc1ccc(NC(=O)CCN2CCCCC2)cc1	.	-6	108	108
COC(=O)c1cnc(N)s1	10	-12	102	108
CNC(=O)C1CCCN(c2nn3c(=O)cc(C)nc3s2)C1 (configuration not stated)	2	5	99	100
CN(C(=O)COC(=O)Cc1ccc(Cl)cc1)C1CCCCC1	-9	.	103	106
O=C1OCC2=C1C(c1ccc(F)cc1)Sc1ccccc1N2 (configuration not stated)	-4	-13	104	101
c1ccc(Cn2nnnc2CN2CCC(n3cnc4cccnc43)CC2)cc1	-4	-82	106	101
O=C(Cn1c(=O)oc2ccccc21)N(Cc1ccco1)CC1CCCO1 (configuration not stated)	15	3	101	102

5 entries drawn at random from the list so far:
SMILES	MbtI inh	Mtb MenB inh	Polio RdRp inh	Polio RdRp inh intensity
Cc1cc(SC2CCOC2=O)nc2ccccc12 (configuration not stated)	61	-11	100	96
Cc1nn(Cc2nc(-c3ccc4c(c3)OCO4)no2)c(C)c1Br	4	-16	102	103
CC1(C)CC(NC(=O)COc2ccc(Cl)cc2Cl)CC(C)(C)N1	-7	.	103	108
CN1c2ccccc2-c2nc3ccccc3n2C1c1ccncc1 (configuration not stated)	116	-2	104	103
O=C(Cn1c(=O)oc2ccccc21)N(Cc1ccco1)CC1CCCO1 (configuration not stated)	15	3	101	102
